BJeLR lethal – kills HRASV12-expressing BJeLR cells; BJeLR (HRASV12) viability, CellTiter-Glo ATP luminescence, 48 h; reference of the scale not given here; inhibition, % (no concentration beside the values); hit rate 0.17% among 300,000;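 active means replicate mean above 50%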;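 further: 50 nL library stock added to about 25 µL; numbers are from one replicate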
ugtP null kill – growth inhibition of S. aureus ugtP deletion strain; growth inhibition, % (no concentration beside the values); S. aureus RN4220 ugtP deletion, OD600 growth, 16 h; some inactives read as strong as hits; hit rate 0.54% among 330,000;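 active means z-score under -3 and OD600 up to 0.15 on both plates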;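 further: plate controls were untreated wells for no effect and antibiotic for full effect; wells of about 80 µL received 100 nL stock; the first replicate is given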
RN4220 kill – S. aureus RN4220 growth inhibition. inhibition, % (no concentration beside the values). hit rate 0.33% among 330,000. OD600, 16 h;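 active means z-score of -3 or lower and OD600 up to 0.18 on both plates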;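 further: plate controls were untreated cells for no effect and reference antibiotic for full effect; stock transfer was 100 nL into about 80 µL; one replicate is shown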
Autofluor counter – counter-screen for toxin protease inhibitors: compound fluorescence; compound autofluorescence counterscreen, microsphere flow cytometry; stronger effect = higher value; fluorescence intensity (test concentration not listed); hit rate 3.1% among 360,000; AID 624483;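 active means at least 3 SD above the mean of all compounds, about 16000 in these data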;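 further: 100 nL of 1 mM stock went into each well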
PrP UTR inh – inhibition of PrP 5' UTR reporter expression. cell-based PrP 5' UTR mRNA reporter, plate reader. inhibition, % (no concentration beside the values). hit rate 0.35% among 340,000;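 active means every replicate at 50% or more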;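 further: 0 = median of the neutral control wells; tested in H4 reporter cells; numbers are from one replicate; inactives centre near -14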
Mtb hypoxia rep – Mtb hypoxia fluorescent reporter inhibition. M. tuberculosis hypoxia-regulated fluorescent reporter, fluorescence. fluorescence inhibition, % (concentration not given with the values). hit rate 0.1% among 300,000. AID 1159583;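 active means 35 to 45% if threefold the growth effect, above 45% if 1.5-fold the growth effect; inactive means the rest, general growth blockers included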;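 further: wells of about 50 µL received 100 nL stock; 0% = vehicle wells and 100% = reference inhibitor wells; whole bacteria with a GFP reporter of the hypoxia response; strong numbers were not always called active; many hits fall short of the cut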
Mtb hypoxia rep growth – second read-out of Mtb hypoxia rep, no call of its own (marks repeat the call); growth inhibition, %; measured here: M. tuberculosis growth (absorbance);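 0% = vehicle and 100% = reference antibiotic; read after six days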
* marks the source's active call; other numbers are inactive results; · = no result given; & = joins results of further samples.

entry	SMILES	BJeLR lethal	ugtP null kill	RN4220 kill	Autofluor counter
1	O=C(Nc1ccc(Cl)cc1)OCc1ccccn1	4	-10	-0.8	9709
2	COc1cc(C(=O)Nc2cccc(C)c2C)ccc1OCC(=O)N1CCOCC1	·	12	4.5	6486
3	CC(C)(C)OC(=O)N1CCCN(C(=O)Nc2ccccc2)CC1	-21	8	1.2	·
4	CCOc1ccccc1C(=O)Nc1ccc(S(=O)(=O)Nc2cc(OC)nc(OC)n2)cc1	-3	-2	-1.0	4292
5	O=C(c1ccc(C(F)(F)F)cc1)C1CCCN(C2CCSCC2)C1 (configuration not stated)	3	4	0.9	3119
6	CC(Nc1cccc2ccccc12)C(=O)NN=Cc1ccc([N+](=O)[O-])cc1 (configuration not stated)	·	-14	-3.6	·
7	Cc1ccc(CNC(=O)COC(=O)c2nc(-c3ccccc3)oc2C)cc1	·	0	0.0	3221
8	CC(CN1CCCCC1)C(=O)NNC(=O)C12CC3CC(CC(C3)C1)C2 (configuration not stated)	11	4	2.9	3256
9	S=C(Nc1ccc2nsnc2c1)N1CCCCCC1	-5	2	-0.6	3499
10	Fc1ccc(Cn2nnnc2C(c2cccs2)N2CCCCCC2)cc1 (configuration not stated)	1	-10	7.8	11766
11	O=C(NCCOc1ccccc1)C1CCC(=O)N(C2CCCCCC2)C1 (configuration not stated)	-3	-1	-1.6	6106
12	COc1nc(NCCC2=CCCCC2)nc(OC)n1	6	-3	-3.5	4592

entry	PrP UTR inh	Mtb hypoxia rep	Mtb hypoxia rep growth
1	-73	5	6
2	-23	7	3
3	·	1	-9
4	12	2	7
5	-31	12	0
6	·	-7	-4
7	7	8	2
8	-6	4	6
9	-33	-1	8
10	-13	4	1
11	-16	3	0
12	-13	-6	2

Copied from above, compounds 11 to 12
entry	SMILES	BJeLR lethal	ugtP null kill	RN4220 kill	Autofluor counter
11	O=C(NCCOc1ccccc1)C1CCC(=O)N(C2CCCCCC2)C1 (configuration not stated)	-3	-1	-1.6	6106
12	COc1nc(NCCC2=CCCCC2)nc(OC)n1	6	-3	-3.5	4592

entry	PrP UTR inh	Mtb hypoxia rep	Mtb hypoxia rep growth
11	-16	3	0
12	-13	-6	2

The results go on:
entry	SMILES	BJeLR lethal	ugtP null kill	RN4220 kill	Autofluor counter
13	CC(=NNC(=O)c1ccc2c(c1)OCCO2)c1ccc([N+](=O)[O-])cc1	·	8	4.7	·
14	COc1ccc(CCNCC(=O)Nc2ccc(C(=O)N3CCCCC3)cc2)cc1	3	7	3.3	3725
15	Cc1cc(C)nc(SC/C=C/c2ccccc2)n1	-11	20	3.7	3878
16	NC1=NC(=Nc2ccccc2)c2ccccc21	3	7	0.1	2702
17	O=C(CCCOc1ccc(Cl)cc1)N1CCCCCC1	-2	0	11	4353
18	Cc1cc(N2C(=O)C3C4C=CC(C4)C3C2=O)ccc1NC(=O)c1cccs1 (configuration not stated)	9	0	4.0	1943
19	O=C(O)C1CC=CCC1C(=O)Nc1ccc2c(c1)OCCO2 (configuration not stated)	0	11	0.4	3001
20	O=C(O)C1C2C=CC(C2)C1C(=O)NCc1ccc2c(c1)OCO2 (configuration not stated)	1	-2	2.4	6121
21	S=c1[nH]nc(-c2ccncc2)n1Cc1ccccc1	3	6	3.2	7975
22	CCCCCCCCN1C(CC(=O)O)c2cc(C(F)(F)F)ccc2S1(=O)=O (configuration not stated)	·	-6	16	·
23	O=C(/C=C/c1ccco1)Nc1ccccc1N1CCOCC1	-3	3	2.8	2090
24	CNC(=S)N(Cc1cc2cc(C)ccc2n2nnnc12)CC(C)(C)CN(C)C	12	7	1.4	3359

entry	PrP UTR inh	Mtb hypoxia rep	Mtb hypoxia rep growth
13	·	15	5
14	-9	6	-2
15	-41	8	13
16	-6	·	·
17	-35	24	12
18	-24	7	9
19	-13	·	·
20	-47	16	3
21	-23	12	1
22	·	6	9
23	-15	18	12
24	-20	1	6

(continued)
entry	SMILES	BJeLR lethal	ugtP null kill	RN4220 kill	Autofluor counter
25	CC(C)NC(=O)C1CCN(S(=O)(=O)c2ccc(N3CCCC3=O)cc2)CC1	9	0	2.0	4167
26	Cc1nc2sc(-c3ccccc3)nn2c(=O)c1Br	-6	0	3.4	2545
27	CC(Cn1nc([N+](=O)[O-])cc1C)=NNC(=O)COc1ccccc1[N+](=O)[O-]	·	0	4.4	·
28	COc1ccc(CCNC(=O)/C=C/c2ccc(OC)c(S(=O)(=O)N3CCOCC3)c2)cc1	-4	8	2.9	3650
29	Cc1sc2nc(CN3CCCCC3)nc(Nc3ccc4c(c3)OCCO4)c2c1C	15	1	2.6	4420
30	COC(=O)c1c(/N=C/N(C)C)sc2c1CCN(c1ncc(C(F)(F)F)cc1Cl)C2	-11	·	·	3166
31	COc1cccc(Nc2nc(N)nc(CCl)n2)c1	22	-12	2.3	·
32	O=C(Cn1cnc2ccccc2c1=O)N1CCOCC1	4	-8	-0.4	2751
33	CC(C)CN=c1cc(-c2ccccc2)oc2ccc(Cl)cc12	1	-4	-4.7	3274
34	CC1CCN(S(=O)(=O)c2ccc(Oc3ccc([N+](=O)[O-])cc3)cc2)CC1	-11	16	1.6	8565
35	CC(=O)Nc1cccc(Oc2ccc([N+](=O)[O-])cc2Cl)c1	1	2	-4.9	1943
36	O=C(NC1CCS(=O)(=O)C1)c1ccc(-c2ccc(Br)cc2)o1 (configuration not stated)	4	0	0.8	11199

entry	PrP UTR inh	Mtb hypoxia rep	Mtb hypoxia rep growth
25	-23	1	-6
26	-120	2	11
27	·	-6	2
28	-18	-5	-3
29	-10	8	0
30	-11	·	·
31	-12	18	22
32	-3	·	·
33	-64	42*	-15*
34	-14	-1	-4
35	-20	10	2
36	-56	6	-8

Profiles from above. Screens in order: BJeLR lethal	ugtP null kill	RN4220 kill	Autofluor counter	PrP UTR inh	Mtb hypoxia rep	Mtb hypoxia rep growth
Results for `CC1CCN(S(=O)(=O)c2ccc(Oc3ccc([N+](=O)[O-])cc3)cc2)CC1` → -11	16	1.6	8565	-14	-1	-4
Results for `COc1cccc(Nc2nc(N)nc(CCl)n2)c1` → 22	-12	2.3	·	-12	18	22
Results for `CC(C)NC(=O)C1CCN(S(=O)(=O)c2ccc(N3CCCC3=O)cc2)CC1` → 9	0	2.0	4167	-23	1	-6
Results for `O=C(NC1CCS(=O)(=O)C1)c1ccc(-c2ccc(Br)cc2)o1` (configuration not stated) → 4	0	0.8	11199	-56	6	-8

Other compounds.
entry	SMILES	BJeLR lethal	ugtP null kill	RN4220 kill	Autofluor counter
37	CCCn1c(SCC(=O)Nc2nccs2)nnc1-c1cccnc1	-4	16	6.3	3801
38	Cn1ccnc1SCC(=O)Nc1sccc1C#N	3	-1	1.5	3686
39	CCCc1c(C(=O)O)cnn1-c1ccc(Cl)cc1	-1	6	0.8	4830
40	CSc1ccccc1C(=O)Nc1nc2ccccc2c(=O)[nH]1	3	-9	10.0	3833
41	Cc1c(Cc2ccccc2)c(NCCCO)n2c(nc3ccccc32)c1C#N	-5	-7	-2.3	·
42	O=C(C[n+]1cc(-c2ccccc2)n2c1CCCCC2)c1ccc(Br)cc1	6	1	2.1	3792
43	CCc1ccc(S(=O)(=O)N2CCN(Cc3ccco3)CC2)cc1	1	·	·	5526
44	CCn1cc(C(=O)NC2CCCc3c2cnn3-c2cccc(C)c2C)cn1 (configuration not stated)	33	·	·	5649
45	COc1cc(-c2cc3nc(C)c(C)c(=O)n3[nH]2)cc(OC)c1OC	0	-5	-0.5	12652
46	O=c1cc(CO)oc2ccccc12	·	-7	5.3	4196
47	COC(=O)[C@@]12CCCCN1C(c1ccc(-c3ccccc3)cc1)C1C(=O)N(C)C(=O)C12 (some centres not stated)	·	-3&-8	-1.5&0.4	·
48	CC1=C(C(=O)OC2CCC(C)CC2)C(c2ccc(O)c([N+](=O)[O-])c2)NC(=O)N1 (configuration not stated)	-8	5	0.6	3579

entry	PrP UTR inh	Mtb hypoxia rep	Mtb hypoxia rep growth
37	-17	8	8
38	-27	·	·
39	-2	12	9
40	-9	12	4
41	·	·	·
42	-17	18	9
43	-36	·	·
44	-4	·	·
45	-19	9	10
46	-20	6	3
47	·	7&4	10&3
48	-1	19	13

Later entries:
entry	SMILES	BJeLR lethal	ugtP null kill	RN4220 kill	Autofluor counter
49	O=C(c1ccoc1)N1CCC2(CC1)Oc1ccc(F)cc1C(=O)C21CC(c2cccnc2)=NO1 (configuration not stated)	6	-2	-2.2	2980
50	C#CCOCCOCCOCCNc1nc(N2CCN(C(=O)C(C)n3cc(CCC(=O)O)nn3)CC2)nc(N2CCN(C(=O)C(C(C)O)n3cc(CCCCN)nn3)CC2)n1 (configuration not stated)	·	-3	2.9	·
51	Cc1ccc(S(=O)(=O)N2CCOCC2)cc1C(=O)OCC(=O)N1CCCCC1	·	3	2.3	3739
52	[O-]/[N+](=C\c1ccco1)c1ccc(Cl)cc1	5	-3	-2.9	5660
53	Cc1ccc(C(=O)Nc2ccncc2)c(Cl)c1	3	3	4.1	3268
54	COc1cc(C(=O)NCc2nnc(SCC(=O)c3ccccc3)o2)cc(OC)c1OC	-5	2	-1.2	4470
55	CCOc1ccc(NS(=O)(=O)c2cc3c(cc2C)N(C)CCO3)cc1	2	5	8.8	6012
56	CCc1nc(C)c(C#N)c2cc(OC)c(OC)cc12	11	7	2.6	4920
57	CC(=O)OCC1OC(OCc2cn(CC3CCC(C4CCC(Cn5cc(COC6OC(COC(C)=O)C(OC(C)=O)C(OC(C)=O)C6OC(C)=O)nn5)O4)O3)nn2)C(OC(C)=O)C(OC(C)=O)C1OC(C)=O (configuration not stated)	·	-5	-0.9	·
58	CCOc1ccc(-c2nnn(CC(=O)c3cc(OC)ccc3OC)n2)cc1	-2	17	5.1	15994
59	Cc1cc(NC(=O)COC(=O)c2ccc(C)c(C)c2)no1	·	-10	3.7	4081
60	Nc1cc(N)nc(SCc2cccc(F)c2)n1	0	6	2.8	4569

entry	PrP UTR inh	Mtb hypoxia rep	Mtb hypoxia rep growth
49	-17	-5	-13
50	·	-1	7
51	3	-4	9
52	-52	-3	5
53	-13	5	2
54	-15	-2	-1
55	3	-1	6
56	-12	·	·
57	·	-9	0
58	-12	6	6
59	-59	7	5
60	-45	4	8

Next part:
entry	SMILES	BJeLR lethal	ugtP null kill	RN4220 kill	Autofluor counter
61	Cc1ccc(Nc2nc3nonc3[nH]c2=O)cc1C	-4	25	48	6035
62	FC(F)(F)c1cccc(-c2nc(COc3ccc(Cl)cc3Cl)no2)c1	12	4	3.8	6925
63	CN(c1ccc(OCC(=O)N2CCN(c3ccc(F)cc3)CC2)cc1)S(=O)(=O)c1cccs1	1	1	5.2	3314
64	CC1(C)C2CC=C(/C=N/NC(=O)C(N)=O)C1C2 (configuration not stated)	1	·	·	4403
65	Cc1cccc(-c2nnc(SCC(=O)C(C)(C)C)n2C)c1	-4	3	3.8	5836
66	CC(C)(C)NC(=O)NC(=O)COC(=O)CNS(=O)(=O)/C=C/c1ccccc1	1	1	7.5	4340
67	CCCCCCOc1ccc(N2C(=O)CC(S/C(N)=N/N=C(\C)c3cccs3)C2=O)cc1 (configuration not stated)	-10	·	·	8599

entry	PrP UTR inh	Mtb hypoxia rep	Mtb hypoxia rep growth
61	-33	·	·
62	-12	-4	0
63	7	11	13
64	-23	·	·
65	-29	22	22
66	-3	5	4
67	-25	·	·

Compound activity: PubChem BioAssay, several laboratories
